# miR-21 FLuc: raises the signal of a miR-21 reporter. HeLa miR-21 FLuc reporter, luciferase, 48 h. Potency, µM (titrated, usually from 38.3 µM), for inactives: top-dose reporter change, positive = more light. 340,000 tested, under 10 active. AID 2288; active = well fitted rising curve with a large enough effect; inconclusive = small, poorly fitted or top-dose-only effect; inactive = no such curve, though single readings can be large or run the other way;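 further: % of control where 0% means no effect; miR-21 action dims this reporter so a rising signal means less miR-21 action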
#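 Using DMEM plus 10% FBS, HeLa miR-21-FLuc cells are incubated with test compounds (final up to about 40uM) for 48 hours; firefly luciferase signal is then imaged following reagent-mediated lysis.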
# Rango-impB inh: prevents formation of the Rango-importin beta complex; hit rate 0.031% among 340,000; Q14974; Potency, µM (titrated, usually from 92.2 µM), for the others: at the highest dose inhibition of complex formation; Rango CFP/YFP FRET sensor + importin beta, 45 min; active = rising FRET ratio curve, often small or poorly fitted; inconclusive = mostly compound fluorescence or quenching in the first reads; inactive = flat curves in all reads;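 further: potency means the concentration at half of the fitted maximal effect; 0% = DMSO wells and 100% = buffer wells lacking importin beta; nearly all actives have a fitted effect of over 15% in size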
#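 FRET biosensor (snurportin 1 IBB flanked by EYFP and cerulean), 50 nM, with compound 5 min, then 0.125 microM importin beta in PBS, 1 mM DTT, 0.02% Tween-20, 0.1% BSA. CFP/YFP ratio read after 45 min at room temperature; pre-read flags interference.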
# Rango dissoc inh: inhibition of RanGTP-driven Rango-importin beta dissociation; O95149+P62826; Biochemical FRET Rango-importin beta, RanGTP-induced dissociation; Potency, µM (highest dose often 46.1 µM), without a hit: top-dose activity change, negative = inhibition; hit rate 0.071% among 340,000; active means falling FRET ratio curve, often poorly fitted, with flat reads before Ran was added; inconclusive means other falling curves, or compound fluorescence or quenching; inactive means flat or rising ratio curve;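 further: potency means the concentration at half of the fitted maximal effect; % of control where 0% means no effect; nearly all actives have a fitted effect of over 45% in size; -100% = wells without RanGTP and RCC1; the record marks most hits as doubtful in a second field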
#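 Rango (0.1 uM)–importin beta (0.25 uM) complex; RanGTP-RCC1 trigger; 45 min RT; CFP/YFP FRET read.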
# GLA inh pH 4.5: blocks human alpha-galactosidase A at pH 4.5. 230,000 tested, under 10 active. activity change, negative = inhibition, % at 105 µM. P06280. purified enzyme, 4-MU-alpha-Gal fluorescence, pH 4.5; inconclusive = small, poorly fitted or top-dose-only inhibition, or a rising curve; inactive = flat fitted curve, though single readings scatter; no compound was filed as active;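 further: 0% = full activity with enzyme and -100% = basal without enzyme; dose as in the result columns while the protocol names 77 µM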
# Target sequence (P06280 whole entry, looked up): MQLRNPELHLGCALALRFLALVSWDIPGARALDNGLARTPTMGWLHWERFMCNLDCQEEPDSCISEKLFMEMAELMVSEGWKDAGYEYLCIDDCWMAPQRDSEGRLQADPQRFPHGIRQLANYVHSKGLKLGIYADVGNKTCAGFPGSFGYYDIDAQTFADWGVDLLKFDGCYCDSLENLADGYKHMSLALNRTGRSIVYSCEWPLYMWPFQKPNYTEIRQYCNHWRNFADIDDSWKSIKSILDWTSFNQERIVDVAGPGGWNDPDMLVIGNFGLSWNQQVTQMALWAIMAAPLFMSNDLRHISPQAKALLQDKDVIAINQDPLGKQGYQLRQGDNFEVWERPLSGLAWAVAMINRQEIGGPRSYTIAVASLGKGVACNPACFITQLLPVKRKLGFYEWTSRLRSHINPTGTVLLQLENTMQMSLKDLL
# * marks the source's active call; other numbers are inactive results; ? = inconclusive; . = not tested or not shown; & = joins results of further samples. These rows are one share of the data; rates above refer to the full screens.
SMILES,miR-21 FLuc,Rango-impB inh,Rango dissoc inh,GLA inh pH 4.5
COc1ccc(CCC(=O)Nc2ccc(S(=O)(=O)Nc3ncccn3)cc2)cc1,.,0.0%,1%,.
NC(=O)C1CCN(C(=O)c2cc(-c3ccccc3Cl)nc3ccccc23)CC1,.,0.4%,-9%,.
CCOc1ccc(N(CC(=O)NC2CCCC2)C(=O)c2ccc(C)s2)cc1,8%,3.3%,-4%,.
CCOC(=O)c1ccc([N+](=O)[O-])c(CS(=O)(=O)c2ccc(Cl)cc2)c1,-4%,-2.7%,-4%,.
COc1ccc(CC2(CO)CCN(Cc3cccc(OC)c3OC)CC2)cc1,-5%,-3.9%,-5%,-14
O=C(O)C1CCC(=O)N(C2CCCCC2)C1c1ccccc1Cl (configuration not stated),2%,-0.5%,5%,2
COc1ccc(OC)c(CCNC(=O)CCc2nnc3ccc(N4CCCCC4)nn23)c1,0%,3.8%,-4%,.
CCc1ccc(CN(C)C(=O)c2cc(S(=O)(=O)N3CCOCC3)ccc2N2CCCC2)cc1,.,-1.1%,-10%,.
Cc1cc(Cl)ccc1N(CC(=O)NCc1ccccc1)S(C)(=O)=O,-5%,-4.0%,-10%,.
COc1ccc(-n2c(=S)[nH]c3[nH]ncc3c2=O)cc1,1%,0.1%,24%,-6
CN1CCN(C(=S)NC(=O)c2ccc(-c3ccccc3)cc2)CC1,-17%,2.5%,-10%,1
COC(=O)c1cc(C(=O)OC)cc(-n2c(C)cc(C(=O)CC#N)c2C)c1,-18%,?,-8%,8
COc1cc(/C=N/NC(=O)CCn2cnc(-c3ccccc3)c2-c2ccccc2)ccc1O,12%,-0.2%,-11%,-4
CN1CCN(C(=O)c2ccc(N3CCCC3=O)cc2)CC1,0%,-1.0%,1%,8
CCOC(=O)NC1(C(F)(F)F)NC(=O)N(C2CCCCC2)C1=O (configuration not stated),4%,0.8%,-4%,0
CN(C)S(=O)(=O)c1cccc(NC(=O)CSc2nnnn2-c2ccccc2)c1,14%,-2.2%,-5%,-1
O=C(COC(=O)c1ccc(Br)cc1)NCc1ccc(F)cc1,0%,0.2%,7%,-2
CCCC(=O)NCC(c1cccs1)S(=O)(=O)c1ccc(C)cc1 (configuration not stated),1%,-1.0%,2%,.
Cn1ccc2cc(NC(=O)Nc3cccnc3)ccc21,.,-2.3%,21%,-5
O=C(CCCn1c(=S)[nH]c2ccsc2c1=O)Nc1ccc2c(c1)OCCO2,-20%,-1.8%,3%,2
C=CCn1cc(C(C)=O)c(=O)[nH]c1=O,3%,-0.8%,13%,-18
c1ccc2c(c1)nc(-c1ccncc1)n1nnnc21,-5%,-6.7%,-7%,3
Cc1cccc(C(=O)NCc2nnc(SCC(=O)Nc3nncs3)n2C)c1,0%,-1.4%,11%,.
CCOc1ccc(NC(=O)c2csc3c2CCCC3)cc1,-75%,-0.4%,-2%,5
COC(=O)CSC1=C(C#N)C(=O)NC2(CCCCC2)S1,0%,-2.3%,1%,13
CN(N)c1nc2ccccc2nc1C(F)(F)F,4%,1.0%,3%,5
COc1ccc(C(=O)NCC(=O)OCn2nnc3ccccc3c2=O)cc1OC,-5%,.,.,0
COc1cc(-c2nc3ccccn3c2NCC2CCCO2)ccc1O (configuration not stated),-2%,?,-13%,7
S=c1nc[nH]c2c1sc1nc(-c3ccccc3)c3c(c12)CCCC3,2%,1.5%,21%,-2
c1ccc(-c2cc(N3CCCCCC3)n[nH]2)cc1,-51%,1.8%,-7%,-3
CNS(=O)(=O)c1cccc(C(=O)NCC2(N3CCCCC3)CCCCC2)c1,4%,1.6%,-3%,.
Cc1c2c(nc3c(C)cccc13)OC(C)C2 (configuration not stated),-16%,-0.5%,-15%,-1
CCCC(c1nnnn1C(C)(C)C)N1CCN(Cc2ccccc2OC)CC1 (configuration not stated),-1%,0.8%,-3%,8
Cc1nc2c(-c3ccc(F)cc3)c(C)nn2c(C)c1CCC(=O)NCCN1CCOCC1,-13%,-3.6%,-11%,-3
CC(=O)c1cccc(OCC(=O)Nc2cc(Cl)ccc2-n2cncn2)c1,.,1.3%,-25%,.
O=C(CNc1ccc(Oc2ccccc2)cc1)N1CCOCC1,-18%,3.3%,-8%,-6
O=C(Nc1cccc2ccccc12)c1ccccc1,-68%,0.3%,-6%,-3
COc1ccc2[nH]c(=O)c(CN(C(=O)c3cccnc3)c3cccc(C)c3)cc2c1,-11%,-3.4%,-20%,-8
COc1ccc(C(=O)NNC(=O)C23CC4CC(CC(C4)C2)C3)c(OC)c1,-22%,2.4%,0%,.
Cc1ccc(N2C(=O)C(F)(F)C2c2ccccc2)cc1 (configuration not stated),-3%,0.4%,21%,-6
CC(C)Cn1c(N)c(C(=O)COC(=O)c2cc(F)cc(F)c2)c(=O)n(C)c1=O,6%,-1.6%,-12%,-8
COCCOC(=O)c1c(C)oc2ccc(OCc3cc(C(=O)OC)oc3C)cc12,22%,-3.5%,-7%,.
CCOC(=O)CN1C(=O)CN(c2ccc(C)c(C)c2)C1=O,-15%,0.7%,2%,1
C=C(C(=O)Oc1c(C(C)(C)C)cccc1C(C)(C)C)c1ccccc1,.,-1.0%,-15%,.
Cc1noc(C)c1COc1ccc(C(=O)N2CC(C)CC(C)C2)cc1 (configuration not stated),.,-0.4%,-19%,.
CC(=O)NC1C(=O)N(CCc2ccccc2)c2ccccc21 (configuration not stated),-4%,-2.0%,1%,-4
Cc1ccc2nc(-c3cccnc3)cc(C(=O)N3CCN(c4ccc([N+](=O)[O-])cc4)CC3)c2c1,2%,5.0%,0%,-8
CCOC(=O)c1c(-c2ccccc2)oc2ccc(O)cc12,-3%,-3.3%,0%,.
O=C(CS(=O)(=O)Cc1ccccc1)N1CCc2ccccc2C1,-27%,1.3%,-14%,0
COc1ccc(OC)c(/C=N/NC(=O)C(O)c2ccccc2)c1 (configuration not stated),0%,-3.0%,7%,.
Cc1ccc(C)c(N2CCN(C(=O)COc3cc(=O)n(C)c4ccccc34)CC2)c1,-1%,2.1%,-7%,-13
CC(=O)N[C@@H](CS)C(=O)O,6%,0.4%,10%,2&3
CCc1cc2c(=O)c(-c3nc4ccccc4n3C)c(C)oc2c(CN2CCCCC2)c1O,0%,-0.2%,9%,2
CN(c1c(C#N)c(C(F)(F)F)nn1C)N(S(C)(=O)=O)S(C)(=O)=O,7%,3.8%,1%,1
CNC(=O)COC(=O)c1ccc([N+](=O)[O-])cc1Cl,-6%,4.1%,1%,-21
CC(C)CNS(=O)(=O)c1ccc(C(=O)Nc2ccc3c(c2)OCCO3)cc1,-32%,1.7%,1%,0
CCO[C@@H]1OC(C(=O)N2CCOCC2)=C[C@H](C(C)(C)C)[C@H]1CCCO,.,4.5%,25%,.
CC1=C(C(=O)Nc2ccccc2)C(c2ccccn2)n2ncnc2N1 (configuration not stated),-5%,-9.5%,16%,11
O=C(CSc1nc2ccccc2c(=O)[nH]1)c1ccc(O)c(O)c1,-19%,0.8%,15%,-8
CCOC(=O)c1ccc(NC(=O)C2C3C=CC(C3)C2C(=O)O)cc1 (configuration not stated),-26%,-2.3%,2%,-3

# Compound profiles, from the list above. Order of values: miR-21 FLuc, Rango-impB inh, Rango dissoc inh, GLA inh pH 4.5
# Shown for `CCc1cc2c(=O)c(-c3nc4ccccc4n3C)c(C)oc2c(CN2CCCCC2)c1O` = 0%, -0.2%, 9%, 2
# Shown for `CCOC(=O)c1c(-c2ccccc2)oc2ccc(O)cc12` = -3%, -3.3%, 0%, .
# Shown for `CCOC(=O)c1ccc(NC(=O)C2C3C=CC(C3)C2C(=O)O)cc1` (configuration not stated) = -26%, -2.3%, 2%, -3
# Shown for `CCO[C@@H]1OC(C(=O)N2CCOCC2)=C[C@H](C(C)(C)C)[C@H]1CCCO` = ., 4.5%, 25%, .

# The list continues.
SMILES,miR-21 FLuc,Rango-impB inh,Rango dissoc inh,GLA inh pH 4.5
Cc1noc(C)c1COC(=O)CCCc1nc2ccccc2s1,5%,-1.2%,3%,-7
CC(C)CN(C(=O)COC(=O)CSc1ccccc1)c1c(N)n(Cc2ccccc2)c(=O)[nH]c1=O,.,-0.1%,-6%,.
CCn1c(SCC#N)nc2c(c1=O)C1(CCCC1)Cc1ccccc1-2,8%,6.3%,-3%,-7
C#CCNC(=O)C1=C[C@H](c2ccc(C(F)(F)F)cc2)[C@@H](CCCO)[C@H](OCC)O1,0%,-1.9%,9%,-12
CCCn1c(=O)n(C)c(=O)c2c(SCC(=O)NC34CC5CC(CC(C5)C3)C4)nc(CC(C)C)nc21,-1%,-3.8%,11%,3
CN(CCO)CC(O)CN(c1ccccc1)c1ccccc1 (configuration not stated),-1%,6.3%,17%,-3
CCc1sc(C(=O)Nc2nccs2)cc1C,-20%,0.0%,2%,.
CCCCn1c(SCC(=O)c2ccc(OCC)cc2)nc2cc(S(N)(=O)=O)ccc21,-10%,-0.2%,1%,3
COc1ccc(Br)c(C(=O)Nc2ccc(F)cc2)c1,-5%,-0.4%,-12%,-12
COc1ccc(-c2cc3nc(-c4ccccc4)cc(N4CCCC(O)C4)n3n2)cc1 (configuration not stated),19%,-6.0%,26%,7
Cc1ccc(CNC(=O)C2CCCN(Cc3cnn(-c4ccccc4)c3-n3cccc3)C2)cc1 (configuration not stated),-4%,-3.7%,1%,-6
C/C(=C/CCC(C)[C@H]1CC[C@@]2(C)C3=C(CC[C@]12C)[C@@]1(C)CCC(=O)C(C)(C)[C@@H]1CC3)C(=O)O (some centres not stated),-14%,-5.2%,-15%,-19
O=C(COC(=O)CNC(=O)c1ccco1)Nc1ncc(Cl)cc1Cl,.,-3.5%,-8%,.
COc1ccc(N2C(=O)CC(N3CCN(c4ccc(S(=O)(=O)N5CCCC5)cc4)CC3)C2=O)cc1 (configuration not stated),1%,-5.1%,-6%,-13
CCOc1cc(CNc2cccc3[nH]c(C)nc23)ccc1OC,-4%,1.8%,-8%,.
COc1ccc(/C=N/NC(=O)c2nc(Cl)c(Cl)c(N)c2Cl)cc1COc1ccccc1F,-6%,0.6%,1%,9
CCCc1ccc(C(=O)NNc2cc(Cl)ccc2Cl)cc1,-19%,-1.4%,-1%,0
CCOC(=O)CNC(=S)N(Cc1ccc(C)cc1)Cc1ccc(C)o1,4%,-4.3%,6%,-3
Cc1ccc(C)c(NC(=O)C2CCCC2)c1,.,-0.3%,3%,.
COc1ccc(C(CCN2CCCC2)c2c(O)cc(OC)cc2OC)cc1 (configuration not stated),5%,3.8%,-3%,2

# Three entries from above in another layout:
miR-21 FLuc | Rango-impB inh | Rango dissoc inh | GLA inh pH 4.5 | Compound
-4% | -3.7% | 1% | -6 | Cc1ccc(CNC(=O)C2CCCN(Cc3cnn(-c4ccccc4)c3-n3cccc3)C2)cc1 (configuration not stated)
-14% | -5.2% | -15% | -19 | C/C(=C/CCC(C)[C@H]1CC[C@@]2(C)C3=C(CC[C@]12C)[C@@]1(C)CCC(=O)C(C)(C)[C@@H]1CC3)C(=O)O (some centres not stated)
. | -3.5% | -8% | . | O=C(COC(=O)CNC(=O)c1ccco1)Nc1ncc(Cl)cc1Cl

# Continuation:
SMILES,miR-21 FLuc,Rango-impB inh,Rango dissoc inh,GLA inh pH 4.5
CCN(CC(=O)NCc1ccc(Cl)cc1)C(=O)CSCC(=O)Nc1ccc(OC)cc1,.,-0.7%,-17%,.
Cc1cccc(OCc2nnc(SC(C)C(=O)O)n2Cc2ccccc2)c1 (configuration not stated),-1%,2.6%,3%,-6
CC1CCCN(S(=O)(=O)c2ccc(-c3ccc(=O)[nH]n3)o2)C1 (configuration not stated),0%,-0.8%,-24%,.
Cn1cc(/C=C(\NC(=O)c2ccccc2)C(=O)NCCCN2CCOCC2)c2ccccc21,-2%,-2.4%,1%,.

# Random excerpt: 3 entries already listed
SMILES,miR-21 FLuc,Rango-impB inh,Rango dissoc inh,GLA inh pH 4.5
Cc1cccc(OCc2nnc(SC(C)C(=O)O)n2Cc2ccccc2)c1 (configuration not stated),-1%,2.6%,3%,-6
Cn1cc(/C=C(\NC(=O)c2ccccc2)C(=O)NCCCN2CCOCC2)c2ccccc21,-2%,-2.4%,1%,.
CCN(CC(=O)NCc1ccc(Cl)cc1)C(=O)CSCC(=O)Nc1ccc(OC)cc1,.,-0.7%,-17%,.

# Screening data (PubChem)
